High-throughput results (PubChem BioAssay)
FGF22 binding: FGF22 (human) thermal shift binding; Q9HCT0; recombinant FGF22 thermal shift, SYPRO orange fluorescence; percent of sucrose octasulfate shift, DMSO zero; calls only at 9.99 µM; hit rate 1.5% among 340,000; AID 651658;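 active = melting point raised past a set limit in the mean and every replicate; inconclusive = no clear call; three in four hits are not shown here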
Target sequence (Q9HCT0 whole entry, looked up): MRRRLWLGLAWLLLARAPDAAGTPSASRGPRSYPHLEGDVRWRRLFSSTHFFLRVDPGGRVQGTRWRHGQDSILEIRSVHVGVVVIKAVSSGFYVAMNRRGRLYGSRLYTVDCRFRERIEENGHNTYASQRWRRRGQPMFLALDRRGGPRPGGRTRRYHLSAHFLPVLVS
Beta cell apopt: blocks beta cell apoptosis | INS-1E cytokine-induced death, ATP luminescence, 48 h; percent of positive-control rescue, neutral wells zero | protection from apoptosis, % (no concentration beside the values) | hit rate 0.8% among 300,000 | AID 435005;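 active = all replicates at 75% or more, or half of them and the mean; inconclusive = half reach 75% but not the mean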;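 also: 0% = cytokine-treated negative control wells and 100% = positive control rescue; higher means more ATP so stronger rescue from cytokine killing; wells of about 40 µL received 100 nL stock; the first replicate is given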
T cruzi inh: T. cruzi replication inhibition; T. cruzi beta-gal in NIH3T3, luminescence, 90 h; inhibition, % (test concentration not listed); hit rate 1.4% among 300,000; AID 1885;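 active = mean inhibition across valid replicates above about 55%, limit read from the data; inconclusive = mean below that limit but half or more replicates reach it; inactive = mean below it, under half of replicates reach it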;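 also: signal also drops with host cell toxicity which is not excluded here; 0% = plate median of DMSO wells and 100% = zero luminescence signal; higher percent means less beta-gal luminescence so fewer parasites; stock transfer was 50 nL into about 50 µL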
ALR inh: inhibitors of human sulfhydryl oxidase ALR; inhibition, % (test concentration not listed); P55789; hit rate 3.8% among 290,000; purified ALR, DTT oxidation, H2O2 HRP-luminol luminescence;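 active = mean and each replicate at 75% or more; inconclusive = only one of the two met; inactive = neither met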;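 also: stock transfer was 7.5 nL into about 7.5 µL; 0% = neutral wells and 100% = wells with inactivated enzyme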
Target sequence (P55789 whole entry, looked up): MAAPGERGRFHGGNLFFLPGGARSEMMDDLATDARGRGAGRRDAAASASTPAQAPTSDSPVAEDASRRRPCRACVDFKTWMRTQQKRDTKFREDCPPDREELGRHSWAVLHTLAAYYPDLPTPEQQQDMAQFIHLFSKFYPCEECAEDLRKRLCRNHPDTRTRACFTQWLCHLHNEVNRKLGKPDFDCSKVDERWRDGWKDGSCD
RanGTP-Imp inh: inhibitors of RanGTP-importin-beta interaction, primary screen, biochemical, FRET, CFP-Ran, YFP-importin-beta, homogeneous; cell-free CFP-Ran/YFP-importin-beta FRET ratio; inhibition, % (no concentration beside the values); hit rate 1.1% among 300,000; AID 2216;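 active = most replicates above 15%; inconclusive = exactly half above 15%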;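 also: 0% = DMSO wells and 100% = Ran loaded with GDP instead of GTP; wells of about 40 µL received 100 nL stock; the first replicate is given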
Ecoli rRNA inh: selective bacterial rRNA inhibition in E. coli | E. coli WT GFP vs humanized-ribosome RFP mutants, fluorescence, 24 h; stronger effect = lower value; DMSO median 0, no signal -100 | GFP signal change (wild-type ribosome), % (concentration not given with the values) | hit rate 1.6% among 350,000 | AID 720706;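 active = significant combined selectivity score with lowered wild-type GFP, culture density cut under 30%, mutant RFP and density less affected; inactive = any of these conditions unmet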; also: one replicate is shown; some compounds called inactive have numbers as strong as hits
Calb FLC: C. albicans growth modulation with fluconazole | C. albicans CaCi-2 (fluconazole-resistant clinical isolate) + fluconazole, Alamar Blue growth, 48 h | hit rate 0.57% among 300,000 | AID 1979 | growth inhibition, % (test concentration not listed);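 active = most replicates above 75%; inconclusive = exactly half above 75%; inactive = most below 75%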;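 also: all wells also contain fluconazole at 8 µg/ml as a sub-toxic cotreatment; 0% = median of DMSO wells and 100% = median of geldanamycin control wells; wells of about 8 µL received 7.5 nL stock; the first replicate is given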
MLL AF4-AF9 inh: inhibitors of human MLL-AF4/AF9 interaction; P42568; inhibition, % at 10 µM; AlphaScreen, biotin-AF4 peptide binding to FLAG-AF9; hit rate 0.47% among 350,000;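 active = every replicate reaching a set inhibition limit, whatever the replicate mean, cut at about 25% in these data; inconclusive = mean inhibition reaches that limit but some replicates miss it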;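 also: 0% = plate neutral control median and 100% = total signal loss; the record names both 10 and 1 µM as test concentration; the first replicate is given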
Target sequence (P42568 whole entry, looked up): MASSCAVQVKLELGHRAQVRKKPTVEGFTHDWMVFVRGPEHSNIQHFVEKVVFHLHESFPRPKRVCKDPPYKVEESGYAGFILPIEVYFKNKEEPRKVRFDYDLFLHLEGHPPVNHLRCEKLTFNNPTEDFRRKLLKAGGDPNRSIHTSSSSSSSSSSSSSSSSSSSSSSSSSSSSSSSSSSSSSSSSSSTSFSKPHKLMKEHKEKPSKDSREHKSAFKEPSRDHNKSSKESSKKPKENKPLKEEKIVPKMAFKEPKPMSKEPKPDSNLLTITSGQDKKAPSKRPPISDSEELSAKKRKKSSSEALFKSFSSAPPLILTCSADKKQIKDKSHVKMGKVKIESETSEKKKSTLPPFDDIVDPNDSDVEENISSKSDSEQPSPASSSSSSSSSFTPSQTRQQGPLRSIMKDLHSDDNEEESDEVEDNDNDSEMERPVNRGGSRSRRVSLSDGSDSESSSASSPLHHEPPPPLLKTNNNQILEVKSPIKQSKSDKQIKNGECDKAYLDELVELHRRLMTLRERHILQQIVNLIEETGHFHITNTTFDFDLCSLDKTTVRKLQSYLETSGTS
Ecoli rRNA inh OD600: second read-out of Ecoli rRNA inh, no call of its own (marks repeat the call); OD600 change, %; measured here: OD600 growth;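 optical density of the mix in the first replicate; 0 = DMSO median and -100 = no signal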
Ecoli rRNA inh RFP: second read-out of Ecoli rRNA inh, no call of its own (marks repeat the call); RFP signal change, %; measured here: RFP humanized mutant strains;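 first replicate; 0 = DMSO median and -100 = no signal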
Starred values were filed as active, the others as inactive; i = inactive; ? = inconclusive; . = no result given. An excerpt. The share of hits here may be higher or lower than overall.

item | SMILES | T cruzi inh | Ecoli rRNA inh RFP | Calb FLC | MLL AF4-AF9 inh | FGF22 binding | Ecoli rRNA inh | Ecoli rRNA inh OD600 | Beta cell apopt | RanGTP-Imp inh | ALR inh
1 | O=C(N/N=C1/CCCc2ccccc21)C(c1ccccc1)c1ccccc1 | 23 | . | 4 | . | . | . | . | 10 | -2.8 | -10
2 | CCCc1cc(C(=O)N/N=C/c2ccc(C)o2)c2ccccc2n1 | 4 | . | -4 | . | . | . | . | 4 | 5.3 | -1
3 | CCC(C)NC(=O)Nc1ccccc1C (centres undefined) | -15 | . | -10 | . | . | . | . | -2 | 3.5 | -4
4 | O=C(NCCCN1CCOCC1)c1cc(Cl)ccc1[N+](=O)[O-] | -5 | -3.9 | 1 | -3.3 | i | 19 | 8 | 3 | 0.6 | -20
5 | N=c1c(S(=O)(=O)c2ccc(Cl)cc2)cc2c(=O)n3ccccc3nc2n1CCN1CCOCC1 | 3 | . | -1 | . | . | . | . | -3 | 5.7 | -7
6 | CC(CNS(=O)(=O)c1ccc2c(c1)CC(=O)N2C)c1ccccc1 (centres undefined) | 5 | -6.5 | 1 | -5.1 | i | 6 | 5 | 12 | 0.2 | 4
7 | Cc1ccc(C(=O)NC2CCN(S(=O)(=O)c3ccccc3F)CC2)cc1 | 0 | -3.6 | 7 | 4.4 | i | 10 | 13 | 1 | -2.1 | .
8 | O=c1cc2[nH]c3ccccc3c(=O)n2nc1-c1ccccc1 | -4 | . | 2 | . | . | . | . | -28 | -27 | 72
9 | COc1ccccc1OCCn1cc(/C=N/NC(N)=S)c2ccccc21 | 21 | -2.0 | 9 | 5.9 | i | -11 | -16 | 13 | -2.3 | 33
10 | COc1cc(NC(=O)COC(C)=O)c(C)cc1[N+](=O)[O-] | -23 | 0.0 | -16 | -0.8 | i | 18 | 10 | -7 | -0.3 | -20
11 | CCC(=O)Nc1ccc(NC(=O)CSc2nnnn2Cc2ccccc2)cc1C | 3 | 3.3 | -4 | -2.6 | i | 7 | 14 | . | -4.5 | .
12 | CCC1Sc2ccc(S(=O)(=O)Nc3cc(OC)cc(OC)c3)cc2NC1=O (centres undefined) | 41 | 4.7 | -3 | -0.6 | i | -41 | -62 | -5 | ? | -4
13 | COc1ccc(C(=O)NCC(=O)NC2=NCCS2)cc1 | 4 | -4.1 | -2 | -10 | i | 2 | 6 | -13 | -0.1 | 58
14 | COc1cccc(-c2nnc3n2N=C(c2cccc(Br)c2)CS3)c1 | -10 | . | -5 | . | . | . | . | -3 | 5.6 | -6
15 | COCCCNC(=O)C(CC(N)=O)NC(=O)OCc1ccccc1 (centres undefined) | -1 | -0.8 | -1 | -2.1 | i | 9 | 4 | -1 | 0.0 | 4
16 | CCOC(=O)C1=C(C)NC(C)=C(C(=O)OCC)C1C(=O)OCC(=O)NCc1ccco1 | . | -1.1 | . | 0.2 | i | -3 | -4 | -2 | . | 1
17 | COc1ccc(Cl)cc1S(=O)(=O)N1CCN(CC(=O)C(C)(C)C)CC1 | -3 | . | 3 | . | . | . | . | -4 | -0.6 | .
18 | CSc1nc(N)c2c3c(sc2n1)COC(C(C)C)C3 (centres undefined) | 17 | . | -4 | . | . | . | . | -1 | -0.5 | .
19 | CCOC(=O)c1ccc2ncc(C(=O)OCC)c(NCCCN3CCOCC3)c2c1 | 37 | . | 8 | . | . | . | . | 12 | -0.8 | 10
20 | CCN(CC)CCNC(=O)c1cn(-c2ccccc2)nc1-c1cccs1 | 17 | . | -10 | . | . | . | . | -1 | 0.1 | -16
21 | CCOC(=O)C1(Cc2ccc(OC)cc2)CCN(C(=O)c2cncs2)CC1 | 5 | -0.7 | 18 | 0.5 | i | -12 | -9 | -5 | -1.5 | -16
22 | COc1ccc(OCCSc2nc3ccccc3c(=O)[nH]2)cc1 | -3 | . | 49 | . | . | . | . | 11 | 0.0 | 1
23 | CCCN1CCN(CCCNC(=O)Cn2nc(-c3ccccc3)ccc2=O)CC1 | 0 | . | -6 | . | . | . | . | -5 | 3.2 | -2
24 | Cc1ccc(Cn2nnc3c(=O)n(CC(=O)NCC4CCCO4)cnc32)cc1 (centres undefined) | -1 | 21 | -1 | 10 | i | 5 | 6 | -5 | -0.2 | -12
25 | CCOc1ccccc1Nc1cc2n(c(=O)n1)CCc1cc(OC)c(OC)cc1-2 | 3 | 10 | 8 | -0.2 | . | -17 | -5 | 26 | -0.4 | -2
26 | COc1ccc(-c2cc(C(F)(F)F)nc(-n3cc(Cl)cn3)n2)cc1 | -30 | . | 9 | . | . | . | . | -2 | 2.8 | 3
27 | CCOC(=O)c1ccccc1NC(=O)C(C)Oc1ccccc1 (centres undefined) | 4 | . | 7 | . | . | . | . | -3 | 2.0 | -1
28 | CC(C)c1c(O)nc(SCc2ccccc2)[nH]c1=O | -4 | . | 3 | . | . | . | . | -10 | ? | -47
29 | Cc1ccc(S(=O)(=O)N(C)CC(=O)N2CCCCCC2)cc1 | 5 | 4.6 | -3 | -0.1 | i | 1 | 1 | -2 | 0.7 | -26
30 | COc1ccc(NC(=O)COC(=O)c2ccc(OC)c(S(=O)(=O)N3CCCC3)c2)cc1OC | . | 2.3 | . | 3.3 | i | -11 | -8 | -5 | . | -31
31 | CCc1ccccc1NS(=O)(=O)c1cccc2nsnc12 | 7 | 2.0 | 26 | 1.0 | i | -3 | -3 | -1 | -0.6 | .
32 | Cc1ccc(C(=O)N2CCN(c3ccccc3)CC2)cc1NC(=O)c1ccco1 | -5 | -0.4 | 1 | 0.9 | i | 0 | -8 | 5 | 4.1 | 72
33 | COc1ccc2c(CC(=O)Nc3nc(C)cs3)coc2c1 | -20 | 8.1 | -39 | 4.7 | i | -16 | -5 | -4 | 3.0 | 10
34 | COc1ccc(CCNC(=O)COc2ccc3c(C)cc(=O)oc3c2)cc1 | . | 0.1 | . | -3.3 | i | 4 | 9 | 0 | . | 4
35 | Cc1ccc(C(=O)NC2CCCC2)cc1S(=O)(=O)N1CCCCC1 | 2 | 1.2 | 8 | -7.1 | i | 1 | -8 | 0 | 0.8 | -3
36 | CCOC1C(=O)NC(=O)N1Cc1ccccc1 (centres undefined) | -1 | 1.9 | -3 | -1.3 | i | 8 | 3 | . | 1.1 | 0
37 | CCOP(=O)(OCC)/C(=N/OC(=O)c1ccc(OC)cc1)C(N)=O | -4 | 0.9 | -8 | 1.7 | i | 22 | 14 | 1 | 0.6 | 27
38 | C[N+]1(CCC(=O)c2ccccc2)CCCCC1 | -15 | . | -6 | . | . | . | . | -19 | -0.2 | 6
39 | O=C(O)COc1ccccc1/C=N/NC(=O)CNC(=O)c1ccco1 | -1 | -1.3 | -27 | 1.4 | i | 0 | -1 | -1 | 4.1 | 14
40 | O=C(NCC1CCCO1)C(c1ccncc1)N(Cc1cccs1)C(=O)Cn1nnc(-c2ccc(F)cc2)n1 (centres undefined) | 8 | 2.4 | -15 | -0.1 | i | 7 | -1 | -11 | 1.9 | 6
41 | COc1cc(C(C(=O)Nc2c(C)cccc2C)N(C)C(=O)c2ccc(-n3cnnn3)cc2)ccc1O (centres undefined) | 3 | 9.1 | -8 | 11 | i | -3 | 3 | -6 | 0.2 | 20
42 | COc1ccc(S(=O)(=O)N2Cc3ccccc3CC2C(=O)Nc2ccc3c(c2)OCO3)cc1 (centres undefined) | 2 | . | -2 | . | . | . | . | 5 | 3.6 | -12
43 | CN1CCN(C(=O)c2cn(-c3ccccc3)nc2-c2cccs2)CC1 | 10 | -0.3 | 6 | -0.2 | i | 10 | 8 | 2 | 3.3 | -11
44 | CC(C)C[C@@H](CN1C(=O)C(=O)NC[C@@H]1CC(C)C)NC(=O)Cc1ccccc1 | . | 7.0 | . | -4.4 | i | 12 | 1 | 1 | . | -9
45 | O=C(O)CCN=C1CCc2ccccc2N1 | 6 | . | 25 | . | . | . | . | 0 | -0.5 | -2
46 | Fc1ccc(CCN2CCN=C2Nc2ccccc2)cc1 | . | 1.9 | . | -5.6 | i | 22 | 13 | -1 | . | .
47 | Cc1cccc(OCC(=O)O/N=C(\N)Cc2ccc([N+](=O)[O-])cc2)c1 | -7 | 8.3 | -5 | 3.6 | i | -12 | -3 | -4 | 0.5 | 18
48 | COc1ccc2c(c1)SCCC2=O | -12 | . | -4 | . | . | . | . | -1 | 0.1 | -14
49 | CCC(C)(NC(=O)CNC(C)=O)C(=O)NC1CCCCC1 (centres undefined) | -1 | . | -1 | . | . | . | . | -9 | 8.2 | 4
50 | CC(C)OCCCNC(=O)c1c(N)n(/N=C/c2ccccn2)c2nc3ccccc3nc12 | 51 | . | 4 | . | . | . | . | 21 | 7.8 | -20

Further compounds follow.
item | SMILES | T cruzi inh | Ecoli rRNA inh RFP | Calb FLC | MLL AF4-AF9 inh | FGF22 binding | Ecoli rRNA inh | Ecoli rRNA inh OD600 | Beta cell apopt | RanGTP-Imp inh | ALR inh
51 | CC(C)Cn1c(=O)c(-[n+]2ccccc2)c([O-])c2ccccc21 | -23 | 0.8 | -3 | -3.1 | i | 9 | 8 | -7 | 0.4 | .
52 | CCCCCn1c(CNC(=O)c2cccs2)nc2ccccc21 | 7 | . | 4 | . | . | . | . | . | 2.7 | -5
53 | NC(=O)c1cc(-c2cccnc2)nc2ccc(Br)cc12 | -10 | 3.1 | -1 | 0.4 | i | 8 | 18 | 5 | 0.0 | 0
54 | O=C(O)c1cc(Cl)c(Cl)cc1C(=O)NCc1ccco1 | -10 | -0.2 | 4 | 0.1 | i | 1 | 5 | -3 | -1.0 | 6
55 | CCC(C)(C)NC(=O)c1ccc2c(c1)S(=O)(=O)c1ccccc1C2=O | -26 | . | 25 | . | . | . | . | 7 | -1.8 | -7
56 | Cc1ccc(C)c(NC(=O)CCNS(=O)(=O)c2ccc3[nH]c(=O)oc3c2)c1 | -12 | -5.2 | 30 | -1.3 | i | -14 | -12 | -1 | -2.3 | -11
57 | O=C(NOC(=O)c1c(F)cccc1Cl)c1ccc(Cl)c(Cl)c1 | -19 | -18 | -9 | -5.6 | i | -51 | -78 | 2 | 6.8 | 19
58 | CCOC(=O)c1ccc(N/C=C/C(=O)c2ccc(OC)cc2)cc1 | -49 | . | -11 | . | . | . | . | 0 | 1.0 | .
